Bioassay records (PubChem BioAssay)
VACV Venus inh: qHTS for Stage-Specific Inhibitors of Vaccinia Orthopoxvirus: Venus Reporter Primary qHTS. 330,000 tested, 0.46% active. Potency, µM (doses to about 36.5 µM), without a hit: at the top dose activity change, negative = inhibition, usual class: inhibitors. Vaccinia virus Venus reporter expression, fluorescence; active means well fitted inhibition curve with a large enough effect; inconclusive means small, poorly fitted or top-dose-only effect; inactive means no such curve, though single readings can be large or run the other way; tested in A549 cells; further: nearly all actives have a fitted effect of over 30% in size; inactives centre near -10
VACV mCherry inh: qHTS for Stage-Specific Inhibitors of Vaccinia Orthopoxvirus: mCherry Reporter Primary qHTS; Vaccinia virus mCherry reporter infection, fluorescence; about a quarter of the inactives have no number; Potency, µM (series often up to 36.5 µM), inactives show at the highest dose activity change, negative = inhibition, hits mostly inhibitors; 310,000 tested, 0.63% active; active = well fitted inhibition curve with a large enough effect; inconclusive = small, poorly fitted or top-dose-only effect; inactive = no such curve, though single readings can be large or run the other way; tested in A549 cells; further: nearly all actives have a fitted effect of over 35% in size; inactives centre near -10
Starred values were filed as active, the others as inactive; i = inactive; ? = inconclusive; / = no result given; & = joins results of further samples; [ ] = dose if it differs, or a comment. On the % scale 0 is the no-effect control and ±100 the full control effect; potency means the concentration at half of the fitted maximal effect. Compounds were not picked by outcome. Share with any hit: about 0.82%.

No.	SMILES	VACV mCherry inh	VACV Venus inh
1	COc1ccc(-c2cnc3c(NC(C)=O)cc(-c4ccc(C(=O)NC5CC5)cc4)cn23)cc1OC	-20%	-11%
2	COc1ccc(C(NC(=O)C2CCN(Cc3ccc(Oc4ccccc4)cc3)CC2)c2ccccn2)cc1 (centres undefined)	i	-21%
3	COc1ccc2[nH]c(=O)c(CN(Cc3ccc4c(c3)OCO4)C(C)=O)cc2c1	/	-2%
4	C/C(=N\O)C(=O)NCCN1CCCCC1	i	-13%
5	CN1CCN(c2ccc(NC(=O)c3ccc(-c4ccc(Br)cc4)o3)cc2)CC1	?	-8%
6	CC1Cc2ccccc2N1C(=O)COc1nc2ccccc2nc1N1CCOCC1 (centres undefined)	-11%	-3%
7	Cc1cc2occ(CC(=O)Nc3nnc(C4CC4)s3)c2cc1C	/	-1%
8	CCOC(=O)C1CCN(S(=O)(=O)c2ccc(Cl)s2)CC1	0%	10%
9	CC(C)c1ccc(CNc2nc(-c3ccco3)nn2C(=O)c2ccc([N+](=O)[O-])cc2)cc1	-2%	-8%
10	COc1ccccc1CNc1ncnc2sc(C(=O)N(C)C(C)C)c(C)c12	-17%	-12%
11	CC(=O)NNC1=Nc2ccccc2N(C)C(C)C1 (centres undefined)	-6%	-7%
12	CC(SCc1ccccc1)C(=O)N/N=C/c1cc2c(cc1Br)OCO2 (centres undefined)	-26%	-20%
13	Cc1ccc2nc3c(cc(C(=O)NCC4CCCO4)c(=N)n3CC3CCCO3)c(=O)n2c1 (centres undefined)	-7%	5%
14	Cc1ccccc1-c1nc(CS(=O)(=O)CC(=O)NCCc2ccccc2)c(C)o1	-5%	-9%
15	O=C(NCCN1CCOCC1)c1ccc2c(c1)N(Cc1ccccc1)CCS2	-6%	-8%
16	Cc1ccc(CNC(=O)CSCC(=O)O)cc1	-7%	-3%
17	CC(C)C[C@H]1COc2cc(N3CCSCC3)ccc2S(=O)(=O)N1	12%	-3%
18	O=C(/C=C/c1ccccc1)OCCN=C1NS(=O)(=O)c2ccccc21	-9%	-1%
19	CN(CCc1ccccc1)C(=O)c1ccc(NC(=O)Cc2ccc(NC(=O)C3CCN(C(=O)C4CCC4)CC3)cc2)cc1	i	-8%
20	COc1cccc(C(=O)OCc2cc(=O)oc3c(C)c(C)ccc23)c1OC	-14%	4%

Ordered by count of non-hydrogen atoms (rising): 3 of the compounds above
No.	SMILES	VACV mCherry inh	VACV Venus inh
18	O=C(/C=C/c1ccccc1)OCCN=C1NS(=O)(=O)c2ccccc21	-9%	-1%
15	O=C(NCCN1CCOCC1)c1ccc2c(c1)N(Cc1ccccc1)CCS2	-6%	-8%
9	CC(C)c1ccc(CNc2nc(-c3ccco3)nn2C(=O)c2ccc([N+](=O)[O-])cc2)cc1	-2%	-8%

Carrying on:
No.	SMILES	VACV mCherry inh	VACV Venus inh
21	CCOCCCNC(=O)CCN1C(=O)c2ccccc2Sc2ncccc21	-1%	-6%
22	Cc1nc(S(=O)(=O)N(C)Cc2ccccc2)c(C#N)c(C)c1Cl	-12%	-8%
23	Oc1ccc(/C(Cc2ccc3ccccc3n2)=N\Nc2ccccc2)c(O)c1	-10%	-17%
24	CC(CCc1ccccc1)NS(=O)(=O)c1ccc(Cl)c(C(=O)O)c1 (centres undefined)	-9%	0%
25	COc1cc(SC)ccc1C(=O)OCC(=O)NC1CCCCC1	-10%	-5%
26	Cc1c(NC(=O)C(C)(C)C)cccc1-c1nc2ccccc2s1	1%	-16%
27	O=C(CSc1nc(O)c(Cc2ccccc2)c(=O)[nH]1)Nc1nc2c(s1)CCCC2	i	-18%
28	CCN1CCC(=NNC(=O)CC23CC4CC(CC(C4)C2)C3)CC1	-29%	-13%
29	CCc1nc2ccc(C(=O)NCCCN3CCCC3=O)cn2c1N(CC)C(C)=O	45%[activator]	9%
30	CCN(CC(=O)NCc1cccs1)C(=O)c1ccc(S(=O)(=O)Nc2ccccc2)cc1	i	-14%
31	Cc1csc(=O)n1CCC(=O)OCc1nnc(-c2ccc(Cl)cc2)o1	-10%	-11%
32	Cc1ccnc(NC(=O)c2cccc(S(=O)(=O)N3CCOCC3)c2)c1	i	-7%
33	CCOC(=O)c1c(NC2OC(=O)c3c2ccc(OC)c3OC)sc(C(=O)OC(C)(C)C)c1C (centres undefined)	-15%	?
34	CC(C)NC(=O)/C=C/C(=O)O	i	-6%
35	COc1ccc(N2C(=O)CC(NCC#N)C2=O)cc1 (centres undefined)	i	0%
36	O=C(NCCO)C(=O)NCC1OCCCN1S(=O)(=O)c1ccc2c(c1)OCCO2 (centres undefined)	-11%	-5%
37	CC(OC(=O)CC(C)c1ccccc1)C(=O)Nc1ccc(Cl)cn1 (centres undefined)	-11%	-12%
38	COc1ccc(C(=O)/C=C/c2ccccc2C(F)(F)F)cc1	i	-10%
39	Cc1c2cccn2cc[n+]1C	-18%	-9%
40	Cc1cc(C)c(S(=O)(=O)c2ccc(Cl)cc2)c(Cl)n1	-6%	-8%
41	CCC(CC)c1nnc(NC(=O)c2ccc(S(=O)(=O)N3CCc4ccccc4C3)cc2)s1	0%	-17%
42	CCOc1cc(/C=N/N=C(\N)c2nonc2N)cc(Br)c1OCc1cccc2ccccc12	-12%	6%
43	O=C(Nc1ccccc1C(=O)N1CCOCC1)c1ccc(CSc2ccccc2)cc1	-4%	-8%
44	Cc1ccc(NC(=O)c2cc3ccccc3o2)cc1S(=O)(=O)N(C)C	-2%	-6%
45	Cc1sc(C2C(C#N)=C(N)N(c3cccc(Cl)c3)C3=C2C(=O)CCC3)cc1CN1CCOCC1 (centres undefined)	-14%	-5%
46	COc1cccc(C(=O)NCC(=O)OCC(=O)Nc2ncc(Cl)cc2Cl)c1	-23%	-10%
47	Cc1cccc(OCC(=O)Nc2ccccc2N2CCN(C(=O)C(C)C)CC2)c1C	-7%	1%
48	CSc1cc(C)n(-c2ccc(Cl)cc2)c(=S)c1C(C)=O	-18%	-6%
49	C[C@@H]1CN([C@H](C)CO)C(=O)Cc2cc(NC(=O)Cn3cnnn3)ccc2O[C@@H]1CN(C)Cc1ccc(Cl)c(Cl)c1	?	?
50	CCOC(=O)C1CCCN(C(=O)c2cc(=O)c3ccccc3o2)C1 (centres undefined)	-12%	-10%
51	CCN(CC)c1ccc(NC(=O)c2cccc(OC)c2)c(C)c1	-9%	?
52	Cn1c(NC(=O)c2ccccc2)cc(=O)n(C)c1=O	-7%	-21%
53	COCCn1c(=N)c(C(=O)NCCc2ccc(OC)cc2)cc2c(=O)n3cccc(C)c3nc21	/	2%
54	COC(=O)c1ccc(NC(=O)c2cc(S(=O)(=O)N3CCc4ccccc43)cn2C)cc1	0%	-16%
55	CC1(C(=O)NS(=O)(=O)c2ccccc2Cl)CCN1C(=O)CCC1CCCC1 (centres undefined)	13%	-3%
56	CC(=O)Nc1ccc(C(=O)N/N=C/c2ccccc2OCc2ccccc2)cc1	-20%	-8%
57	COc1ccc(NC(=O)Cn2nnc(C(=O)NCc3ccco3)c2N)c(OC)c1	-12%&-6%	-8%&-18%
58	CC(=O)c1cccc(NC(=O)C2=CC(c3ccc4c(c3)OCO4)=NS(=O)(=O)N2C)c1	2%&-5%	-3%&-8%
59	COc1cccc(CNS(=O)(=O)/C=C/c2ccc(OC)c(OC)c2)c1	i	-12%
60	Cc1c(C)c([N+](=O)[O-])c(C)c(C)c1N	-3%	-5%
61	Cn1cc(S(=O)(=O)N2CCCC2)cc1C(=O)NCc1ccc(Cl)cc1	i	4%
62	CCOC(=O)C1CCN(c2nc3ccccc3nc2C(C#N)C(=O)OCCOC)CC1 (centres undefined)	i	-20%
63	S=C(Nc1ccc(Cl)cc1)N1CCOCC1	-10%	1%
64	CSc1ccc(/C=N/N2CCN(Cc3ccc(Cl)cc3)CC2)cc1	?	-14%
65	CC(Oc1cccc(Cl)c1)C(=O)NC1CC(C)(C)NC(C)(C)C1 (centres undefined)	i	-8%
66	CCCc1nc2ccc(NC(=O)NCCC(=O)OCC)cc2c(=O)n1Cc1ccc(Cl)cc1	-11%	-1%
67	COC(=O)c1ccc(COc2ccccc2/C=C/C(=O)c2ccc(OCC(=O)O)cc2)cc1	i	3%
68	COc1ccc(C(=O)Cn2c(=N)n(C)c3ccccc32)cc1	-22%	-8%
69	COc1cccc(-c2oc3c(c2-c2ccc(OC)nc2)C(O)CCC3)c1 (centres undefined)	-5%	0%
70	Cc1ccn2cc(-c3cc4ccccc4oc3=O)nc2c1	0%	0%

Later entries:
No.	SMILES	VACV mCherry inh	VACV Venus inh
71	CCOC(=O)C(NC(C)=O)(Nc1cccc(F)c1)C(F)(F)F (centres undefined)	/	-14%
72	Cc1ccc(-n2c(O)c(C=Nc3ccc(S(N)(=O)=O)cc3)c(=O)[nH]c2=O)cc1	-1%	-16%
73	CCOc1cc(C)nc(N2CCCC(C(=O)NCc3ccccc3F)C2)n1 (centres undefined)	i	-13%
74	COc1ccc(-n2nc3c(c2NC(=O)C(=O)N2CCN(C)CC2)CSC3)cc1	-7%	-7%
75	Clc1ccc(SCCOCCN2CCc3ccccc3C2)cc1	?	-14%
76	CCOC(=O)CCCCNCc1ccccc1	i	-15%
77	CCOCCCn1cc(C(=O)c2cc(Br)ccc2O)cc(C#N)c1=O	-16%	18%
78	CCN(c1ccc(NC(=O)CN2C(=O)NC3(CCOc4ccccc43)C2=O)cc1)C(C)C (centres undefined)	-8%	-23%
79	CC(C)(C)c1ncc(S(=O)(=O)c2ccc(C(F)(F)F)cn2)c(N)n1	?	?
80	COc1ccc(-c2cc(C(F)(F)F)nc(SCC(=O)N3CCCCC3C)n2)cc1OC (centres undefined)	-12%	9%
81	N#Cc1ccc(-c2cccnc2)nc1SCc1ccc(Cl)cc1Cl	i	-7%
82	CC1(C(=O)Nc2ccccc2)Cc2ccccc2C(=O)O1 (centres undefined)	i	-4%
83	CC(C)(C)n1cnc2cc(NC(=O)c3ccco3)ccc21	9%	-1%
84	Nc1c(S(=O)(=O)c2ccccc2)csc1C(=O)O	3%	-4%
85	CN1CCN(c2sc(S(C)(=O)=O)nc2S(=O)(=O)c2ccc(Cl)cc2)CC1	-13%[7.34 µM]	-5%[7.34 µM]
86	CCc1ccccc1NC(=O)CCCn1c(=O)c2cccn2c2ccccc21	-9%	-5%
87	CCn1c(O)c(C=Nc2ccccc2)sc1=S	-19%	-13%
88	CN(Cc1ccccc1)Cc1c(O)ccc2ccccc12	-13%	-7%
89	COc1ccc(N2Cc3cccc(C(=O)Nc4cccc(F)c4)c3C2=O)cc1	-21%	-11%
90	O=C(O)CCN(CCC(=O)O)c1ccccc1	i	-8%
91	COc1ccccc1CNC(=O)[C@@H]1CCCN1S(=O)(=O)c1ccc(Cl)cc1	-21%	-2%
92	COC(=O)c1ccccc1C(=O)N1CCOc2ccc(CN3CCN(c4ccccn4)CC3)cc2C1	-4%	-7%
93	CCN(c1ccc(N=Cc2c(O)n(Cc3ccc(OC)cc3)c(=O)c3ccccc23)cc1)C(C)C	16%	14%
94	O=C(NCc1ccccc1OC(F)(F)F)C1CCC(=O)N(CCCN2CCOCC2)C1 (centres undefined)	i	-7%
95	CC1=C(c2ccccc2)C=NNCC1=O	-14%	-4%
96	Cc1ccc(S(=O)(=O)NCc2ccccc2)cc1C(=O)N1CCN(S(=O)(=O)c2ccccc2)CC1	-26%	-16%
97	Cc1ccc(C(=O)N2CCN(S(C)(=O)=O)C2)cc1	/	-17%
98	COCCCn1c(-c2ccc(Cl)cc2)n[nH]c1=S	-17%	-6%
99	C#Cc1ccc(NC(=O)C2(C)CCN2C(=O)C2(c3ccccc3)CCCC2)cc1 (centres undefined)	24%	4%
100	Cc1cccc(CNC(=O)c2ccc(Cn3c(SCc4ccccc4)nc4cccnc43)cc2)c1	-7%	-5%
101	CCOc1ccccc1NC(=O)Cn1c(=O)n(Cc2ccco2)c(=O)c2ccc(C(=O)NC3CCCC3)cc21	-14%	-8%
102	CC1CCN(c2nc3ccccc3nc2SCC(=O)Nc2ccccc2C(C)C)CC1	-9%	-1%
103	O=C(CNS(=O)(=O)c1ccc(Br)cc1)N1CCN(c2ccc(F)cc2)CC1	/	-27%
104	O=C(COC(=O)c1cc(S(=O)(=O)N2CCOCC2)ccc1Cl)NCc1ccccc1	i	-6%
105	CN(C(=O)COC(=O)/C=C/c1ccc(Cl)c(Cl)c1)c1c(N)n(Cc2ccccc2)c(=O)[nH]c1=O	-21%	?
106	COc1ccc(OCC(=O)NCc2ccc3c(c2)CCN3C(=O)c2cccc(C)c2)cc1	?	-24%[7.34 µM]
107	NCCCCCC(=O)O	-14%	-12%&-8%
108	CCOC(=O)c1sc2ccccc2c1S(=O)(=O)Nc1c(C)cccc1C	-3%	3%
109	Cc1ccc(C)c(S(=O)(=O)N2CCN(C(=O)c3ccccc3Cc3ccccc3)CC2)c1	i	-1%
110	CSc1ncccc1C(=O)OCC(=O)Nc1ccc2c(c1)OCO2	0%	2%
111	COc1ccc([C@H]2CC(=O)C[C@@H](CCn3cc(-c4ccccc4)nn3)O2)cc1	-8%	0%
112	COc1cccc(OCCNc2cc(N3CCOCC3)ccc2[N+](=O)[O-])c1	-24%	?
113	O=C1OC(N2C(=O)CC[C@H]2C(=O)NCC2CCCO2)c2ccccc21 (some centres undefined)	-6%	-1%
114	N#C/C(=C1\CCCN1)c1nc2ccccc2c(=O)[nH]1	i	-12%
115	CC1CC(C)CN(S(=O)(=O)CCNC(=O)c2ccccc2)C1 (centres undefined)	-17%	-2%
116	CCCNc1ncnc2c1c(-c1ccccc1)cn2-c1ccc(OCC)cc1	-10%	-6%
